Screening data (PubChem)
ClpP mod: qHTS Assay for Activators of ClpP. ATP-dependent Clp protease proteolytic subunit (Bacillus subtilis (strain 168)), P80244. purified B. subtilis ClpP, FRET peptide cleavage, 20 min. Potency, µM (titrated, usually from 57.5 µM), for inactives: at the highest dose activity change, negative = active. actives 1.9% (n = 340,000). AID 651965, 2013; active = well fitted falling curve with a large enough effect; inconclusive = small, poorly fitted or top-dose-only effect; inactive = no such curve, though single readings can be large or run the other way; further: potency means the concentration at half of the fitted maximal effect; the source files actives as falling curves though it sought activators and does not explain the sign; nearly all actives have a fitted effect of over 65% in size; many hits overshoot -100%
Target sequence (P80244 whole entry, looked up): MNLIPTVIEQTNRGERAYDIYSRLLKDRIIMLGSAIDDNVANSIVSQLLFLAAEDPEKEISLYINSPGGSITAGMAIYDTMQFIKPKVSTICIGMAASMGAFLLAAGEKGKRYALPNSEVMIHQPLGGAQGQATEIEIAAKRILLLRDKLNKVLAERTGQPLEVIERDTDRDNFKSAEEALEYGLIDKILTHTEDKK
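Buffer: 100 mM Tris/HCl pH8, 100 mM KCl, 0.05% low protease BSA, 2.5% glycerol, 0.01% Tween-20. ClpP 10 microg/mL final; 20 min RT; delta FRET normalized to ADEP and DMSO controls.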
TRPML1 blocker: blocks the human TRPML1 channel | Q9GZU1 | actives 0.02% (n = 390,000) | activity change, negative = inhibition, % (test concentration not listed) | TRPML1-inducible cells, Ca2+ dye fluorescence, FDSS; active compounds read low; inhibition of EC80 agonist-evoked calcium signal; in the data active means activity change below about -50%; inconclusive means about -30% to -50%; inactive means above about -30%;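 further: stimulus is agonist 54-4 at its EC80 concentration; on the % scale 0 is the no-effect control and ±100 the full control effect; compound concentration not given in the record; the text of the record puts the active cut at -80%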
Target sequence (Q9GZU1 whole entry, looked up): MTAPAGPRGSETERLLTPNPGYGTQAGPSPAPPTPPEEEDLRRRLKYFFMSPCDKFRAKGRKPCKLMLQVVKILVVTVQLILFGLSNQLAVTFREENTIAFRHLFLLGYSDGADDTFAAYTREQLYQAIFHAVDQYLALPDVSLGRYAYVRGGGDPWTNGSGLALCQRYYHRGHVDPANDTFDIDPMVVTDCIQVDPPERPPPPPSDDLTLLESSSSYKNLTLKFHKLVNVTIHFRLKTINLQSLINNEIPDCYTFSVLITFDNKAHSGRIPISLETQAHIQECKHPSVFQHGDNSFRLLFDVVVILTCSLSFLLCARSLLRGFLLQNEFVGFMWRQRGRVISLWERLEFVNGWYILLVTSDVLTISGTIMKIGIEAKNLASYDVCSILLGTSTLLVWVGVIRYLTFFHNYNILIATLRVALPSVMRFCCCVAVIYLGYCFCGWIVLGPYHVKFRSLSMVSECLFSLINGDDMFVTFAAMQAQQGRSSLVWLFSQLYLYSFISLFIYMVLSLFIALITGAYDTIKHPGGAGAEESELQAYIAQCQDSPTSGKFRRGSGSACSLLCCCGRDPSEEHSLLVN
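Calcium fluorescence in TRPML1-DL cells induced overnight with Tet: a 110 s read after compound pin addition, then a 110 s antagonist read after challenge with 54-4 at 4 uM final (EC80).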
gsp antag: antagonists of gsp mutant (McCune-Albright syndrome); gsp-mutant cells, cAMP HTRF, 30 min; control for the full effect not named in the record; actives 0.4% (n = 340,000); AID 624288; Potency, µM (series often up to 76.9 µM), inactives show at the top dose activity change, negative = inhibition, most hits filed as inhibitors; active = falling curve of any shape with a large fitted effect; inconclusive = falling curve, mostly with a smaller effect; inactive = flat or rising curve; cell line not stated here;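 further: intracellular cAMP measured with PDE inhibitor Ro 20-1724 present during compound exposure; potency means the concentration at half of the fitted maximal effect; on the % scale 0 is the no-effect control and ±100 the full control effect; nearly all actives have a fitted effect of over 65% in size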
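Measurement of cellular cAMP by homogeneous time-resolved fluorescence following a 30 min compound exposure at 37C. The PDE inhibitor […] was present throughout; the assay buffer was DPBS with 0.05% BSA and 0.005% Tween 20.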
TRPV1 PAM: human TRPV1 potentiation | Q8NER1 | TRPV1-expressing cells, Fluo-8 calcium influx, capsaicin EC20 potentiation; host cell line not named in the record; control for the full effect not named in the record | potentiation, % at 8.33 µM | actives 0.02% (n = 320,000); active means potentiation above 80%; inconclusive means 30% to 80%; inactive means below 30%; further: 0% is about no effect
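TRPV1-expressing cells were cultured overnight at 35.5C and loaded with Fluo-8 calcium dye for 40 to 90 min at room temperature. After a 10 s baseline, compound was added and calcium influx was read kinetically for 3 min (ex 480/em 520 nm).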
Sfp PPTase inh: blocks B. subtilis Sfp PPTase activity | actives 3.5% (n = 310,000) | Potency, µM, for inactives: max response, negative = inhibition, most hits filed as inhibitors | Biochemical Sfp PPTase activity, qHTS; active means well fitted inhibition curve with a large enough effect; inconclusive means small, poorly fitted or top-dose-only effect, or another doubt; inactive means no such curve, though single readings can be large or run the other way;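 further: the enzyme is Sfp with the accession as filed and its product quenches rhodamine fluorescence; potency means the concentration at half of the fitted maximal effect; 0% = enzyme reaction without inhibitor and -100% = no enzyme wells; top concentration of the series not given in the record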
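Step 1, compound plus 15 nM Sfp-PPTase, 15 min, room temperature. Step 2, add rhodamine-CoA (5 uM) and BHQ-2-YbbR (12.5 uM). Step 3, read 525/598 nm fluorescence at 0 and 30 min.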
Menin MLL FP FL: inhibitors of human menin-MLL interaction, wild-type MLL peptide | 290,000 tested, under 10 active | FP activity change, % at 61.4 µM | Fluorescence polarization, fluorescein-MLL peptide displacement from menin; inconclusive = falling polarisation curve, or a change in total fluorescence; inactive = total fluorescence flat and polarisation flat or rising; no compound was filed as active; the % refers to the polarisation; negative = inhibition;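 further: % of control where 0% means no effect; inhibitors lower the polarisation; unlabelled MLL peptide was the positive control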
gsp ag: agonists of gsp mutant (McCune-Albright syndrome); gsp mutant cells, cAMP HTRF, 30 min; control for the full effect not named in the record; Potency, µM (series often up to 76.9 µM), inactives show at the highest dose activation (cAMP increase), most hits filed as activators; AID 624287; actives 0.13% (n = 340,000); active = well fitted activation curve with a large enough effect; inconclusive = small, poorly fitted or top-dose-only effect, or another doubt; inactive = no such curve, though single readings can be large or run the other way; cell line not stated here;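 further: phosphodiesterase inhibitor Ro 20-1724 added with compounds to block cAMP breakdown; potency means the concentration at half of the fitted maximal effect; nearly all actives have a fitted effect of over 60% in size; about a fifth of the inactives were tested at one dose only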
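Cells in DMEM/10% FBS with G418 were pretreated with compounds in DMSO plus […] (300 uM stock) for 30 min at 37C. cAMP was measured by HTRF (cAMP-d2 plus anti-cAMP antibody-K) after 30 min at room temperature.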
* hit, by the source's call; ? = inconclusive; . = not tested or not shown; [ ] = another dose, or the depositor's remark.

SMILES | ClpP mod | TRPML1 blocker | gsp antag | TRPV1 PAM | Sfp PPTase inh | Menin MLL FP FL | gsp ag
COCCOC(=O)C1=C(C)NC2=C(C(=O)CC(C)(C)C2)C1c1cccnc1 (stereo not given) | 28µM* | 14 | 2% | -3 | 15% | -1.1 | -5%
CC(C)N1CCSC1=S | ? | 34 | 0% | . | . | . | -26%
COc1ccccc1Oc1ccc2c(c1)C(=O)N(c1ccccc1)C2=O | 0.8% | 41 | ? | 3 | 14% | -0.9 | ?
CCNC(=S)N(CCc1c(C)[nH]c2ccc(C)cc12)Cc1cccnc1 | -1.4% | -9 | -16% | -12 | 6% | -0.5 | 10%[15.4 µM]
Cc1ccc2[nH]c(-c3ccccc3)c(CN3CCOCC3)c(=O)c2c1 | -5.3% | 1 | 8% | 2 | 19% | 1.3 | -8%
COc1ccc(NC(=O)CCc2nc(-c3ccc(C)cc3)no2)cc1Cl | -0.7% | -6 | -11%[15.4 µM] | -1 | 6% | -1.7 | -18%
COC(=O)c1c(C)nsc1NC(=O)Oc1ccccc1 | . | 8 | 8% | 5 | 16% | -0.3 | 4.5µM*
CC(Sc1nncn1C)C(=O)NCCC1=CCCCC1 (stereo not given) | . | 2 | 4% | . | . | . | 15%
CC(=O)c1ccc(S(=O)(=O)NC2CC(=O)N(c3ccc(Cl)cc3)C2)cc1 (stereo not given) | 2.5% | 3 | -11% | -15 | . | . | -58%[inhibitor]
FC(F)(F)c1cccc(Cc2noc(CN3CCCCC3c3ccccn3)n2)c1 (stereo not given) | . | -2 | -1% | -9 | 16% | 0.7 | -43%
O=C(O)c1nn(CC(=O)N2CCN(c3ncc(C(F)(F)F)cc3Cl)CC2)c(=O)c2ccccc12 | . | 0 | -17% | -8 | 10% | -4.3 | ?
COc1ccc(NC(=O)C23CC4CC(C2)CC(c2ccc(C)cc2)(C4)C3)cc1 | -15% | -6 | -31% | 6 | 2% | 7.5 | -7%[15.4 µM]
Cc1cc(C)cc(N/C(N)=N/c2nc(C)cc(C)n2)c1 | 0.4% | 3 | 7% | -5 | -8% | 2.5 | ?
CCCCn1c(N)c(-c2nc3ccccc3s2)c2c([N+](=O)[O-])nn(CC)c(=O)c21 | -3.3% | 20 | 9% | -4 | 9% | -0.4 | -25%
CCOC(=O)C1C(=O)OC2(CCCC2)C1C(=O)OCC (stereo not given) | -2.2% | 11 | 9% | 1 | 23% | 2.7 | -5%
CC(/C=C/c1ccco1)=N\NC(=O)c1cc(C)[nH]n1 | 3.1% | -11 | -4% | 2 | 18µM* | 6.5 | 3%
Cc1ccc(-c2noc(CSc3nnc(-c4cccs4)n3C)n2)cc1 | 18% | 5 | -27% | 6 | -6% | 3.2 | 23%
COc1ccc2[nH]c3nc(SCc4nnc(-c5ccc(C)cc5)o4)nnc3c2c1 | 1.5% | 5 | -7% | -8 | 14% | 6.8 | 26%
COc1cccc(C(=O)N(C)CC(=O)Nc2ccc(F)c(F)c2F)c1 | . | 10 | -4% | -4 | 11% | 2.5 | -6%[15.4 µM]
Cc1nn(-c2ccc(F)cc2)c(Cl)c1/C=C/C(=O)N1CCNC(=O)C1 | -2.4% | -4 | -9% | -22 | 7% | 0.2 | -27%
O=C(COc1ccc2ccc(=O)oc2c1)OCc1ccccc1 | 3.9% | 6 | ? | 3 | 2% | 0.0 | -1%
O=C(NCCN1CCOCC1)c1cc(-c2ccccc2)nc2ccccc12 | 2.9% | -9 | . | . | . | . | 2%
Cn1c(N)c(C(=O)COC(=O)C2(c3cccc(F)c3)CCCC2)c(=O)n(C)c1=O | -1.9% | 35 | 2% | 10 | -11% | 2.7 | 0%
CCCCn1c(SCC(=O)NC2CC2)nc2ccccc2c1=O | -1.6% | 4 | 2% | -5 | 18% | . | ?
CCOC(=O)/C(C#N)=C1/C=CN(C)C(C)=N1 | 0.5% | 15 | 8% | 22 | 1% | 0.5 | -29%
Cc1ccc2nc(SCc3nc4ccccc4c(=O)[nH]3)[nH]c2c1 | . | -2 | . | 0 | 45µM* | -2.0 | 0%[15.4 µM]
CCOc1ccccc1NC(=O)/C(C#N)=C/c1cccnc1 | -3.7% | 11 | -20% | 7 | 4% | 2.4 | 25%
CNC(=O)COC(=O)c1ccc(NC(=O)CC#N)cc1 | -0.8% | 39 | 6% | 27 | 0% | 2.0 | 11%
CC1(C)CC(=O)C2=C(C1)N(Cc1ccco1)C(=O)C2(NC(=O)c1cccnc1)C(F)(F)F (stereo not given) | -0.2% | -9 | 3% | -1 | 22µM* | -0.6 | -15%
C=CCOC(=O)C1=C(C)NC(=O)NC1c1cc2c(cc1Br)OCO2 (stereo not given) | -0.6% | -28 | 10% | ? | -1% | 0.0 | 2%
Cc1ccc(N2C(=O)CC(Sc3ncccc3C(=O)O)C2=O)cc1 (stereo not given) | . | -27 | -7% | -4 | 9% | -2.6 | 2%
CC(C)C(=O)Nc1nnc(SCc2cccc(F)c2)s1 | 0.0% | -2 | 5% | 9 | 15% | -0.2 | 4%
Cc1ccnc(N2CCCC(C(=O)Nc3cccc(C)c3C)C2)n1 (stereo not given) | . | -7 | 1% | 8 | 10% | . | -1%[15.4 µM]
COCC(C)n1c(C)cc(C(=O)COc2ccc(N(C)S(=O)(=O)c3ccc(NC(C)=O)cc3)cc2)c1C (stereo not given) | -12% | 4 | ? | 3 | . | . | -24%[15.4 µM]
CN(Cc1ccon1)Cc1cn(C)nc1-c1ccc2c(c1)OCCO2 | . | -6 | -3% | 2 | 2% | 1.8 | 23%[15.4 µM]
CCOC(=O)C1=C(COC(=O)COc2ccccc2C(C)C)NC(=O)NC1C (stereo not given) | -1.0% | 3 | 6% | -2 | . | . | -33%
CN(C)S(=O)(=O)c1ccc(NC=O)cc1 | . | 8 | . | 6 | 13% | 0.2 | 0%[15.4 µM]
Cc1ccc(-n2c(C)nnc2SCC(=O)N2CCOCC2)cc1 | . | -2 | 0% | 24 | 22% | 2.2 | 2%[15.4 µM]
COc1cc(C(=O)OCc2ccc(C)cc2)cc(NC(=O)c2cccs2)c1OC | . | -20 | 8% | 17 | -8% | 3.2 | 9%[15.4 µM]
O=C(CSCc1cccc(Cl)c1)N/N=C/c1ccc(OCC(=O)N2CCCCC2)cc1 | -2.7% | 6 | ? | . | 1% | 3.5 | 0%
COc1ccc2c(c1)C(c1ccc(C)o1)=NNC(c1cccnc1)=N2 | -11% | 20 | -21% | 1 | 3% | 0.2 | 4%[15.4 µM]
Cc1c(NS(=O)(=O)c2cccc(C(=O)N3CCC(C)CC3)c2)c(=O)n(-c2ccccc2)n1C | . | 4 | 1% | . | . | . | -9%
Cc1cc(C)n(CCNC(=O)CC2C(=O)NCCN2Cc2ccccc2C(F)(F)F)n1 (stereo not given) | . | -3 | -3% | -4 | -5% | -17 | 17%[15.4 µM]
CC(=O)Nc1nc(C)c(Oc2ccc(Cl)cc2Cl)c(=O)[nH]1 | -0.9% | -2 | -6% | 0 | 8% | -7.3 | -1%
Cc1ccc(C)c(CNS(=O)(=O)c2c(C)[nH]c(C)c2C(=O)N2CCCCC2)c1 | -2.7% | -21 | -5% | 7 | 7% | 0.2 | 8%
O=S(=O)(c1ccc(-c2nnc(SCc3ccccc3)o2)cc1)N1CCCC1 | -17% | -7 | 7% | -3 | 7% | 1.2 | 24%
C/C=C(/C)C(=O)O[C@@H]1c2c(ccc3ccc(=O)oc23)O[C@@H]1C(C)(C)OC(=O)/C(C)=C\C | 3.9% | 37 | ? | -6 | -2% | 1.8 | .
CCOC(=O)c1cc2c(s1)-c1ccccc1CC2 | ? | 26 | 3% | -13 | -9% | 4.7 | -1%
COCCN(Cc1cc2ccccc2[nH]c1=O)C(=O)c1ccccc1OC | -13% | -5 | 10% | 18 | -1% | 5.3 | 6%
O=C(CCc1c[nH]c2ccccc12)NC1CC1 | -5.8% | 17 | 6% | 7 | 2% | 1.9 | 24%
COc1ccc(C(=O)NNC(=O)C(Cc2ccc(O)cc2)NC(=O)c2ccccc2NC(=O)c2ccc(OC)cc2)cc1 (stereo not given) | -20% | 10 | 11% | 7 | 22µM* | -0.9 | 25%[15.4 µM]
CCOC(=O)Cn1nc(/C=C/c2ccc(OC)cc2)ccc1=O | -3.6% | 13 | 1% | . | . | . | ?
COc1cc(C(=O)N(Cc2cc3cc(C)ccc3[nH]c2=O)CC2CCCO2)cc(OC)c1OC (stereo not given) | -4.2% | -2 | 1% | 11 | 4% | 2.5 | -2%

Structural class: the compounds so far with fluorine (8)
SMILES | ClpP mod | TRPML1 blocker | gsp antag | TRPV1 PAM | Sfp PPTase inh | Menin MLL FP FL | gsp ag
FC(F)(F)c1cccc(Cc2noc(CN3CCCCC3c3ccccn3)n2)c1 (stereo not given) | . | -2 | -1% | -9 | 16% | 0.7 | -43%
O=C(O)c1nn(CC(=O)N2CCN(c3ncc(C(F)(F)F)cc3Cl)CC2)c(=O)c2ccccc12 | . | 0 | -17% | -8 | 10% | -4.3 | ?
COc1cccc(C(=O)N(C)CC(=O)Nc2ccc(F)c(F)c2F)c1 | . | 10 | -4% | -4 | 11% | 2.5 | -6%[15.4 µM]
Cc1nn(-c2ccc(F)cc2)c(Cl)c1/C=C/C(=O)N1CCNC(=O)C1 | -2.4% | -4 | -9% | -22 | 7% | 0.2 | -27%
Cn1c(N)c(C(=O)COC(=O)C2(c3cccc(F)c3)CCCC2)c(=O)n(C)c1=O | -1.9% | 35 | 2% | 10 | -11% | 2.7 | 0%
CC1(C)CC(=O)C2=C(C1)N(Cc1ccco1)C(=O)C2(NC(=O)c1cccnc1)C(F)(F)F (stereo not given) | -0.2% | -9 | 3% | -1 | 22µM* | -0.6 | -15%
CC(C)C(=O)Nc1nnc(SCc2cccc(F)c2)s1 | 0.0% | -2 | 5% | 9 | 15% | -0.2 | 4%
Cc1cc(C)n(CCNC(=O)CC2C(=O)NCCN2Cc2ccccc2C(F)(F)F)n1 (stereo not given) | . | -3 | -3% | -4 | -5% | -17 | 17%[15.4 µM]
